From PubChem BioAssay
B2AR ag: beta2AR agonists driving receptor internalization, primary screen, cell-based, FAP fluorogen, flow cytometry; hit rate 0.43% among 340,000; response, % (no concentration beside the values); Am2.2-beta2AR cells; reference of the scale not given here; Beta-2 adrenergic receptor (Homo sapiens), P07550;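 active = response above a set limit, near 3 SD of response in nonfluorescent compounds, cut at about 42% in these data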;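 note: stock transfer was 100 nL into about 11 µL; a reference agonist was the positive control; negative values mostly stem from fluorescent compounds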
rRNA inh HTS: reduced GFP signal of wild-type E. coli, primary screen, bacterial rRNA inhibitor project, GFP/RFP fluorescence, OD600, single point; E. coli WT GFP vs humanized-ribosome RFP mutants, 24 h; active compounds read low; DMSO median 0, no signal -100; GFP signal change (wild-type ribosome), % (test concentration not listed); hit rate 1.6% among 350,000;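 active = significant combined selectivity score with lowered wild-type GFP, culture density cut under 30%, mutant RFP and density less affected; inactive = any of these conditions unmet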; note: one replicate is shown; some compounds called inactive have numbers as strong as hits
A1 inh: caspase 3/7 activation in MEF A1-2A-BIM cells, primary screen, A1 inhibitor project, cell-based, luminescence, HTS; hit rate 0.066% among 330,000; Caspase-Glo 3/7 luminescence, 3 h; percent of clofoctol response, vehicle zero; caspase activation, % (no concentration beside the values); AID 2462, 2010;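 active = over half of replicate activation scores above 10%, or exactly half above 10 with the replicate mean above 10; inconclusive = replicate mean below 10 yet half the replicates above 10; inactive = over half of replicates below 10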;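 note: wells of about 30 µL received 50 nL stock; many hits fall short of the cut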
Beta cell apopt: inhibitors of cytokine-induced beta cell apoptosis, primary screen, luminescence | hit rate 0.8% among 300,000 | protection from apoptosis, % (no concentration beside the values) | INS-1E cytokine-induced death, ATP luminescence, 48 h; percent of positive-control rescue, neutral wells zero;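 active = all replicates at 75% or more, or half of them and the mean; inconclusive = half reach 75% but not the mean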;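 note: 0% = cytokine-treated negative control wells and 100% = positive control rescue; higher means more ATP so stronger rescue from cytokine killing; wells of about 40 µL received 100 nL stock; the first replicate is given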
ALR H2O2 inh: inhibitors of human ALR sulfhydryl oxidase, primary screen, biochemical, H2O2 detection, HRP-luminol luminescence, single point; hit rate 3.8% among 290,000; purified ALR, DTT oxidation; inhibition, % (test concentration not listed); AID 485317, 2010;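 active = mean and each replicate at 75% or more; inconclusive = only one of the two met; inactive = neither met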;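 note: stock transfer was 7.5 nL into about 7.5 µL; 0% = neutral wells and 100% = wells with inactivated enzyme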
Calb FLC: C. albicans growth inhibition with fluconazole, primary screen, CaCi-2 strain, Alamar Blue fluorescence; hit rate 0.57% among 300,000; growth inhibition, % (test concentration not listed); C. albicans CaCi-2 (fluconazole-resistant clinical isolate) + fluconazole, 48 h;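 active = most replicates above 75%; inconclusive = exactly half above 75%; inactive = most below 75%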;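 note: all wells also contain fluconazole at 8 µg/ml as a sub-toxic cotreatment; 0% = median of DMSO wells and 100% = median of geldanamycin control wells; wells of about 8 µL received 7.5 nL stock; the first replicate is given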
T cruzi inh: inhibitors of intracellular T. cruzi growth, primary screen, luminescence, NIH3T3 host cells. AID 1885, 2009. hit rate 1.4% among 300,000. inhibition, % (no concentration beside the values). T. cruzi beta-gal in NIH3T3, 90 h;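 active = mean inhibition across valid replicates above about 55%, limit read from the data; inconclusive = mean below that limit but half or more replicates reach it; inactive = mean below it, under half of replicates reach it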;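 note: signal also drops with host cell toxicity which is not excluded here; 0% = plate median of DMSO wells and 100% = zero luminescence signal; higher percent means less beta-gal luminescence so fewer parasites; stock transfer was 50 nL into about 50 µL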
LANA-H2A inh: blockers of LANA interaction with H2A/H2B – biochemical, FP readout, HTS, primary screen | Protein LANA1 (Human herpesvirus 8 type P (isolate GK18)), Q9QR71 | cell-free LANA-H2A/H2B peptide, fluorescence polarization | inhibition, % (test concentration not listed) | hit rate 0.6% among 320,000 | AID 2629, 2010; in the data active = inhibition mostly above about 10%, no sharp cut-off; inactive = mostly below about 6.7%;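 note: stock transfer was 7.5 nL into about 10 µL; 0% = median of vehicle wells and 100% = median of positive control wells; one replicate is shown; the record names a cut of 25% in any replicate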
Target sequence (Q9QR71 whole entry, looked up): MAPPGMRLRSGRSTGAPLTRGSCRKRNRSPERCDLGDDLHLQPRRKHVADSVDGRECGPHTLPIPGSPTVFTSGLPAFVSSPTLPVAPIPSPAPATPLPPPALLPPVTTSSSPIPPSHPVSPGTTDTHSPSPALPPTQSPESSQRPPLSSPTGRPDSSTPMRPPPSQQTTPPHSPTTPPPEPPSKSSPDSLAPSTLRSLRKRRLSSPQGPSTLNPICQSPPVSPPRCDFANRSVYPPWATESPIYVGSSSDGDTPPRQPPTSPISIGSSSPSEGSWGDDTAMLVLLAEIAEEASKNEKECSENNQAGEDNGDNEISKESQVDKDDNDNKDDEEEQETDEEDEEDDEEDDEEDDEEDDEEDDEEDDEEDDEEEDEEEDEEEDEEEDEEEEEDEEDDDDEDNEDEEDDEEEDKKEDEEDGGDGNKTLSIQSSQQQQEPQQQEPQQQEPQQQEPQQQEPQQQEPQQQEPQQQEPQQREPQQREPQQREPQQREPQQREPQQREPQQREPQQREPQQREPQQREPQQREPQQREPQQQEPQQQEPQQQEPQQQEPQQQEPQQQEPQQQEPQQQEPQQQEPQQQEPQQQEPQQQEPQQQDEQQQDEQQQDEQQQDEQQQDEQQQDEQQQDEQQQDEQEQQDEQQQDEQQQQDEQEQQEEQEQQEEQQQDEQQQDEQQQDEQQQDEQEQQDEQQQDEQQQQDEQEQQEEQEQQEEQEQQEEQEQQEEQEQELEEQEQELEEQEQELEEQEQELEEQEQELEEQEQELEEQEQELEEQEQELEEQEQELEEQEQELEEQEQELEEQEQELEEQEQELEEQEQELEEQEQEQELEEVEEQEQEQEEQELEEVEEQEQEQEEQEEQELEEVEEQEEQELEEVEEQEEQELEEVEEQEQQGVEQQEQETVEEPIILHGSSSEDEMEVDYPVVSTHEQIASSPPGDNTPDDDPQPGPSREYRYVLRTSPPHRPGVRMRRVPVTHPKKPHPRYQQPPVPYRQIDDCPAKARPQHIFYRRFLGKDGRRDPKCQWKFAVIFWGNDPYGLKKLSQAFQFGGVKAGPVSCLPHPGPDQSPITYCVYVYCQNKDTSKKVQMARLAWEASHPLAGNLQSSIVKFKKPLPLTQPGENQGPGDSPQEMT
rRNA inh HTS OD600: further read-out of rRNA inh HTS, marked with its call; OD600 change, %; measured here: OD600 growth;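 optical density of the mix in the first replicate; 0 = DMSO median and -100 = no signal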
rRNA inh HTS RFP: further read-out of rRNA inh HTS, marked with its call; RFP signal change, %; measured here: RFP humanized mutant strains;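 first replicate; 0 = DMSO median and -100 = no signal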
The depositor's hits bear a star; ? = inconclusive; nt = no result given. The list is partial (hit frequency here may not be typical).

Under each structure: rRNA inh HTS, LANA-H2A inh, A1 inh, Calb FLC, rRNA inh HTS RFP, rRNA inh HTS OD600, Beta cell apopt, B2AR ag, T cruzi inh, ALR H2O2 inh
(1) c1ccc2c(c1)CCc1c(-c3ccncc3)n[nH]c1-2
→ -24.9, nt, -2.4, nt, -4.9, -41.6, -2.2, 1.6, nt, 2.0
(2) CCOC(=O)N1CCN(C(=O)CN(c2ccc(OC)cc2)S(C)(=O)=O)CC1
→ -0.4, -2.4, -0.1, 32.1, -1.7, 8.5, -1.9, -4.8, -19.8, -2.7
(3) CC(=O)N1CCc2c(sc(NC(=O)CCS(=O)(=O)c3ccc(C)cc3)c2C#N)C1
→ 1.7, -8.8, 0.6, 3.2, -1.2, 8.0, 20.2, 2.6, 27.0, -6.7
(4) Cc1cc2c(nc1C)CCCN2C[C@@H](C)O/N=C1/[C@H]2CCn3c(=O)n(-c4ccccc4)c(=O)n3[C@H]2[C@H](O)[C@@H]2O[C@H]12
→ nt, -0.7, 1.3, nt, nt, nt, -18.2, nt, nt, 48.2
(5) CC(=O)NCC12CC3CC(C1)CC(C(=O)O)(C3)C2
→ nt, -0.8, 0.1, 42.2, nt, nt, -5.2, 0.3, -9.4, 56.0
(6) Cn1c(=O)c2c(nc(NCc3ccco3)n2C/C=C/c2ccccc2)n(C)c1=O
→ nt, -1.1, -0.2, 9.1, nt, nt, 52.1, -2.4, 0.9, -0.7
(7) Cc1ccc(Cl)cc1NC(=O)C1CCCN1S(=O)(=O)c1ccc(-c2ccc(=O)[nH]n2)s1 (stereo unspecified)
→ -1.1, -2.5, 0.7, 8.5, 3.4, -20.6, -7.9, -4.9, 7.3, 0.2
(8) CCOC(=O)C1C(=O)CC(C)(O)C(C(=O)OCC)C1c1ccc(F)cc1 (stereo unspecified)
→ nt, 3.2, 1.0, -10.0, nt, nt, -1.3, -1.0, -9.9, -3.2
(9) O=C1C=C(c2ccc3c(c2)oc2ccccc23)C[C@@H](c2ccc3c(c2)OCO3)C1
→ 5.7, 13.6, 0.1, nt, 2.8, -6.5, 1.1, -2.1, nt, -2.3
(10) Cn1c(SCC(=O)Nc2nccs2)nnc1-c1ccc(S(=O)(=O)N2CCCC2)cc1
→ nt, 4.6, 0.1, 3.0, nt, nt, 1.5, 0.2, 15.8, -15.1
(11) Cc1nc(SCC(=O)Nc2ccc3c(c2)OCO3)c(C#N)c2c1CCCC2
→ nt, -3.9, -0.2, nt, nt, nt, 9.6, -4.4, 4.7, -35.0
(12) Cc1c(Cl)cccc1NC(=S)/C(=C(\[O-])c1ccc(Cl)s1)[n+]1ccccc1
→ nt, 1.3, -0.1, -2.5, nt, nt, -3.4, 4.1, 19.4, -13.2
(13) O=C(NC(=S)N1CCCCCC1)c1cccc([N+](=O)[O-])c1
→ -4.1, 1.3, 1.2, nt, -2.7, 5.3, -0.8, -1.5, nt, nt
(14) COc1c(Cl)cc(C(=O)O)cc1Cl
→ nt, -4.8, -0.3, 3.7, nt, nt, -5.1, -0.6, -14.8, -22.3
(15) O=C(CSc1nnc(-c2ccccc2)c(-c2ccccc2)n1)Nc1ccc(Br)cn1
→ -39.9, -0.3, 1.5, -5.0, -13.7, -43.6, 2.2, 0.2, 27.0, 25.8
(16) CCCc1nn(C)c(C(=O)Nc2cccc3ccccc23)c1Cl
→ nt, 3.8, -0.3, -5.2, nt, nt, 3.8, -6.4, -12.3, -2.8
(17) O=C(COc1ncnc2c(Cl)cc(Cl)cc12)NCCC1=CCCCC1
→ 12.7, 4.4, -0.2, -4.6, -3.4, 5.7, -10.3, -3.5, -4.9, nt
(18) N/C(CS(=O)(=O)c1ccccc1)=N\OC(=O)c1ccc(F)cc1
→ 9.4, 3.0, 1.3, -2.7, 1.9, 10.4, -6.0, -0.8, -21.4, 1.9
(19) CCOC(=O)C1(CC2CC2)CCN(C(=O)c2ocnc2C)CC1
→ 5.7, -0.1, 0.2, -2.6, -4.8, 10.3, -3.9, 5.0, 7.0, -0.3
(20) O=C(NCc1cn2ccsc2n1)Nc1ccc(Cl)cc1
→ nt, -1.4, 0.3, -9.4, nt, nt, 3.3, 6.7, -21.7, -3.1
(21) O=C(OCc1nnc(-c2ccccc2)o1)c1ccc2c(c1)OCCO2
→ nt, -2.9, -0.8, -5.8, nt, nt, -3.4, -7.3, -14.7, 41.8
(22) COc1ccc(C(=O)CC(=O)C(=O)Nc2cc(OC)c(OC)c(OC)c2)cc1
→ 4.5, 2.2, 0.7, -8.6, -0.3, 16.8, -3.5, -0.1, 7.5, -34.0
(23) CC1(C)Cc2c(sc3[nH]c(=S)[nH]c(=O)c23)CO1
→ -1.7, 3.1, 1.1, -2.7, -8.3, 1.7, -1.0, 0.9, 8.9, nt
(24) COc1cccc(/C=C2\SC(=S)N(CCC(=O)N3CCCCC3)C2=O)c1
→ -2.4, 6.2, -0.5, -1.9, 2.2, -17.4, -83.1, 6.1, -5.0, 2.7
(25) CCN(CC)S(=O)(=O)c1ccc(C)c(NC(=O)CN2C(=O)NC3(CCCC3)C2=O)c1
→ 3.4, 17.2, 0.3, -6.9, -1.2, 0.9, -3.2, 4.3, 3.2, nt
(26) COc1ccc(CNC(=O)C2CCN(S(C)(=O)=O)CC2)c(OC)c1
→ -1.7, -3.9, 0.3, 8.6, 2.9, -3.5, -3.2, 0.2, -1.1, -2.2
(27) Cc1ccc(CN(C)C(=O)CCc2nc3sc4c(c3c(=O)[nH]2)CCCC4)o1
→ -25.6, -4.0, 0.4, 11.2, -3.6, -24.7, -6.9, 1.8, -0.7, 98.2*
(28) Cc1cc(NC(=O)CSc2nccn2-c2cccc(C)c2C)no1
→ -27.9*, 1.2, 0.4, -3.3, 2.0*, -8.3*, -0.9, -2.4, -0.9, -3.0
(29) COc1cccc(C(=O)N2CCN(Cc3cc(Br)ccc3OC)CC2)c1
→ nt, -0.6, 0.8, nt, nt, nt, -1.1, 0.8, nt, -2.0
(30) NS(=O)(=O)c1ccc(CNC(=O)Cc2cccs2)cc1
→ 4.8, 1.8, 0.7, -2.4, -2.3, 4.1, nt, 1.4, 0.1, -1.1
(31) CC1(C)CC(=O)C=C(c2ccc3c(c2)OCO3)C1
→ nt, 1.3, 0.6, 2.4, nt, nt, -7.3, -7.3, -7.0, 28.0
(32) CCOc1ccc(-c2[nH]ncc2Oc2cccc(OC)c2)c(O)c1
→ nt, -2.3, 0.0, -5.9, nt, nt, -1.1, -0.6, -14.6, 16.0
(33) CCOc1ccc(N/C(=C(/C(Cl)=C(Cl)Cl)[N+](=O)[O-])n2cncn2)cc1
→ nt, 4.3, -0.5, 12.0, nt, nt, -8.4, nt, -9.3, -74.2
(34) COc1nc(-c2ccccc2)nc(-c2ccccc2)c1C
→ 8.1, 1.0, -0.5, -1.8, 1.1, 10.7, nt, -1.4, 9.2, -7.1
(35) CSCCC(NS(=O)(=O)c1ccccc1F)C(=O)NCC(c1ccc(F)cc1)N1CCOCC1 (stereo unspecified)
→ 4.9, -2.7, 0.1, nt, 0.6, 5.2, -0.1, 0.9, -8.2, -1.8
(36) CC(C)NC(=O)CSCc1c(F)cccc1Cl
→ nt, 4.3, 0.5, -12.4, nt, nt, 9.8, 0.9, 0.5, -1.9
(37) O=S(=O)(c1cc(Cl)ccc1Cl)n1nnc2ccccc21
→ nt, -8.4, 1.0, 47.1, nt, nt, -0.6, 15.2, -21.6, -3.0
(38) COC(=O)c1ccc(S(=O)(=O)N2CCCC2)o1
→ nt, 2.7, 0.6, 2.5, nt, nt, -7.2, 3.5, 8.0, -16.6
(39) CCN=C1SC(CC(=O)NCc2ccccc2)C(=O)N1CC (stereo unspecified)
→ 6.0, -3.3, 0.8, ?, 2.9, 1.1, -6.1, 6.8, -5.1, -18.7
(40) COc1ccc([C@H]2CC(=O)C=C(c3cc(C=O)ccc3OC)C2)cc1
→ -14.7, 1.4, 0.6, nt, -13.8, -23.5, 3.3, -14.8, nt, 7.5
(41) O=C(Nc1ccnn1C1CCN(CCCc2ccccc2)CC1)c1ccccc1
→ 12.5, -3.9, -0.5, -11.6, 2.2, 0.8, 5.2, 0.7, 17.7, -4.9
(42) Cc1ccc(Cn2ncn3c(cc4ccccc43)c2=O)cc1
→ nt, -13.8, 0.7, 5.0, nt, nt, 0.2, -16.0, 5.7, -6.6
(43) C=CCSc1nnc(-c2cc(Br)ccc2N)c(=O)[nH]1
→ -5.8, 3.9, -0.4, 4.7, -1.6, -4.6, -5.6, 5.3, 4.1, 6.1
(44) CCCn1c(=O)c2c(nc(Br)n2CCC)n(C)c1=O
→ nt, 4.4, -1.3, 6.5, nt, nt, -1.1, -6.0, 4.0, nt
(45) CCCC12CN3CCN(CC(C3)/C1=N\NC(=O)c1ccccc1N)C2
→ nt, nt, 1.1, -3.3, nt, nt, -0.5, -2.3, 4.3, nt
(46) COC(=O)CCC(=O)NC(=S)Nc1ccc(S(=O)(=O)N2CCCC2)cc1
→ -7.1, -3.1, -0.7, -10.2, -0.2, -10.8, -6.1, 9.3, -6.2, -0.9
(47) COc1cc(CCCN2C(N)=NC[C@@H]2Cc2ccccc2)cc(OC)c1OC
→ nt, -0.5, -1.1, -19.6, nt, nt, -9.0, 2.8, -21.8, 0.7
(48) CC(C)(C)OC(=O)N1CCC(NC(=O)c2nc[nH]c2C(=O)N2CCc3ccccc3C2)CC1
→ 2.4, -0.9, -1.2, nt, -8.8, -1.1, 0.2, 0.8, nt, 3.3
(49) O=C(N/N=C/c1ccccc1)c1cccc2ccccc12
→ 14.8, 1.1, 0.6, -1.3, -1.0, -6.5, -6.6, 1.4, 5.2, -4.5
(50) CCCc1ccc(C(=O)NNc2ccc(F)cc2)cc1
→ -4.5, -6.1, 0.6, 76.6*, -1.0, 5.6, -9.7, -2.6, nt, -7.5
(51) CCOC(=O)C(NC(=O)C1CCCN1C(=O)OCc1ccccc1)C(=O)OCC (stereo unspecified)
→ nt, nt, 0.3, -0.2, nt, nt, -8.1, 22.0, -4.5, nt
(52) Cc1ccc2c(c1)sc1nc(=O)n(-c3cccc(Cl)c3)c(=O)n12
→ nt, 3.2, -0.3, -8.0, nt, nt, -0.4, 2.6, 41.4, -3.7
(53) COc1ccc([C@@H]2[C@@H]3C(=O)N(C(C)(C)C)C(=O)[C@@H]3[C@]3(Cc4ccccc4)C(=O)N(c4ccc(Br)cc4)C(=O)N23)cc1
→ nt, -0.9, 1.0, -4.4, nt, nt, 16.8, -13.3, 8.9, 1.0
